MgrA-DNA mod: modulators of Staphylococcus aureus MgrA DNA binding | inhibition, %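 (about 10 µg/mL by stock and volumes)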 | fluorescence polarization | hit rate 0.13% among 84,000;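 active means above 50% in either of two replicates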;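 further: 0% = protein plus DNA without compound and 100% = DNA alone without protein; higher means less MgrA bound to DNA so lower polarization; one replicate is shown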
S aureus helic: S. aureus DNA helicase inhibition. hit rate 0.05% among 120,000. purified S. aureus helicase, fluorescence unwinding assay; about half of the hits fall short of the stated cut. AID 485395. inhibition, %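 (tested at about 80 µM)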;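 active means both duplicates at 50% or more, or one of them with a favoured structure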;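 further: 0% = mean of negative control wells and 100% = mean of positive control wells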
An asterisk follows results filed as active; . = no result given.

SMILES | MgrA-DNA mod | S aureus helic
CCOC(=O)N1CCc2c(sc3[nH]c(=S)n(-c4ccccc4)c(=O)c23)C1 | -0.2 | .
COC(=O)c1cc(CO/N=C(\C)c2ccc3c(c2)OCCO3)oc1C | . | -12
COC(=O)c1ccc(O)c(CSc2ccc(Cl)cc2)c1 | 0.3 | .
Cn1c(C(Cc2ccccc2)NC(=O)C(C)(C)C)nc2ccccc21 (stereo not drawn) | . | 12
CCOC(=O)c1ccccc1NC(=O)c1sc2nc(C)nc(N(CC)CC)c2c1C | 3.2 | 8
N#CCNC(=O)c1cccc(I)c1 | -0.5 | -2
C=CCN=c1scc(-c2ccco2)n1/N=C(\C)CC | . | -22
CCSc1sc(C(=O)OC)c(-c2cccs2)c1C#N | 3.0 | .
O=C(COc1ccccc1)Nc1cccc(-c2nc3cccnc3s2)c1 | -1.4 | -2
Cc1cc(C)n(-c2ccc(-n3cccc3/C=C(\C#N)S(C)(=O)=O)cc2)n1 | 2.3 | .
Cn1c(C(=O)O)c(CNCc2cccnc2)c2ccccc21 | 1.9 | 8
O=C(CSc1ncnc2ccccc12)Nc1nccs1 | . | -20
O=C1NC(=O)C(Cc2ccccc2)(Cc2ccccc2)N1 | . | 9
N#Cc1cccc(NC(=O)CCCC(=O)Nc2cccc(C#N)c2)c1 | -1.4 | 13
O=C(Cc1cccs1)N/N=C/C1CCCCC1 | . | 14
CC(C)n1nc(C(=O)Nc2ccc3c(c2)CCC3)c2ccccc2c1=O | . | -2
O=C(Cc1ccc(Cl)cc1Cl)N1CCN(c2ccccc2O)CC1 | -7.5 | -11
O=C(NCCc1cccs1)c1cccs1 | 0.6 | .
CCn1c(CCC(N)=O)n[nH]c1=S | . | -7
O=C(Nc1ccc(NC(=O)c2ccc([N+](=O)[O-])cc2)c(-c2nc3ccccc3s2)c1)c1ccc([N+](=O)[O-])cc1 | -0.3 | .
Cc1nc2ccccc2n1CCc1ccccc1 | . | -15
OCCc1c(-c2ccccc2)n(Cc2ccccc2)c2ccccc12 | 0.6 | 12
O=C1Cc2cc(S(=O)(=O)NCc3cccs3)ccc2N1 | -0.2 | 0
COc1ccccc1C1CCN(Cc2cccc([N+](=O)[O-])c2)CC1 | -1.9 | .
C=CCSc1nnc2[nH]c(=O)cc(N)n12 | 0.3 | 5
CCc1nc2ccccc2c(C(=O)OCC(=O)N2C(C)CCCC2C)c1C (stereo not drawn) | . | -5
Cc1ccc(S(=O)(=O)CCC(=O)OCn2nnc3ccccc3c2=O)cc1 | . | -16
CCN(CC)Cc1ccc(C(=O)O)o1 | -1.1 | -1
CSc1ccc(OS(=O)(=O)c2cc(S(=O)(=O)c3ccccc3)cs2)cc1 | 0.0 | .
CC(=O)[C@H]1CC[C@H]2[C@@H]3CC=C4C[C@@H](O)CC[C@]4(C)[C@H]3CC[C@]12C | -3.0 | .

Arranged by number of heavy atoms (lowest first): 16 of the compounds above
SMILES | MgrA-DNA mod | S aureus helic
N#CCNC(=O)c1cccc(I)c1 | -0.5 | -2
CCN(CC)Cc1ccc(C(=O)O)o1 | -1.1 | -1
O=C(NCCc1cccs1)c1cccs1 | 0.6 | .
O=C(Cc1cccs1)N/N=C/C1CCCCC1 | . | 14
Cc1nc2ccccc2n1CCc1ccccc1 | . | -15
C=CCN=c1scc(-c2ccco2)n1/N=C(\C)CC | . | -22
COC(=O)c1ccc(O)c(CSc2ccc(Cl)cc2)c1 | 0.3 | .
O=C1NC(=O)C(Cc2ccccc2)(Cc2ccccc2)N1 | . | 9
Cn1c(C(=O)O)c(CNCc2cccnc2)c2ccccc21 | 1.9 | 8
CC(=O)[C@H]1CC[C@H]2[C@@H]3CC=C4C[C@@H](O)CC[C@]4(C)[C@H]3CC[C@]12C | -3.0 | .
O=C(Cc1ccc(Cl)cc1Cl)N1CCN(c2ccccc2O)CC1 | -7.5 | -11
N#Cc1cccc(NC(=O)CCCC(=O)Nc2cccc(C#N)c2)c1 | -1.4 | 13
Cc1cc(C)n(-c2ccc(-n3cccc3/C=C(\C#N)S(C)(=O)=O)cc2)n1 | 2.3 | .
CCc1nc2ccccc2c(C(=O)OCC(=O)N2C(C)CCCC2C)c1C (stereo not drawn) | . | -5
CCOC(=O)c1ccccc1NC(=O)c1sc2nc(C)nc(N(CC)CC)c2c1C | 3.2 | 8
O=C(Nc1ccc(NC(=O)c2ccc([N+](=O)[O-])cc2)c(-c2nc3ccccc3s2)c1)c1ccc([N+](=O)[O-])cc1 | -0.3 | .

Next results.
SMILES | MgrA-DNA mod | S aureus helic
CC(C)C(=O)Nc1ccc(NC(=O)c2ccccc2)nc1 | -0.9 | 0
Nc1cc(C(=O)OCC(=O)N2CCc3ccccc32)ccc1Cl | 1.8 | -17
CCC(CC)NC(=O)c1ccc[nH]c1=S | . | 4
O=C(Cn1nc2sc3ccccc3n2c(=O)c1=O)c1cccs1 | . | 17
CSc1ccc(C2C3C(=O)NC(=O)C3ON2c2ccccc2)cc1 (stereo not drawn) | . | 9
NC(=O)COC(=O)C1(c2ccc(Cl)cc2)CCCC1 | -1.3 | -16
Cc1cc(N2CCN(c3ccccc3)CC2)n2ncnc2n1 | -0.5 | 3
O=C(/C=C/c1ccccc1)NC(=S)Nc1cccnc1Cl | -1.7 | 4
O=C(OCC(=O)N1CCCC1=O)c1cccc(S(=O)(=O)NCc2ccccc2)c1 | . | -7
CCOc1ccc(N2C(=O)CC(N3CCC(O)(c4ccc(Cl)cc4)CC3)C2=O)cc1 (stereo not drawn) | -2.0 | 10
CC(C)(C)C(=O)NC(=S)Nc1cc(C(F)(F)F)cc(C(F)(F)F)c1 | -4.5 | .
CSc1cccc(N=C2NC(=O)C(CC(=O)Nc3cccc(SC)c3)S2)c1 (stereo not drawn) | 0.6 | .
COc1ccc(CCN2C(=O)CCC2(C)C(=O)NCc2ccccc2)cc1OC (stereo not drawn) | . | -39
CCC(C)N(C(=O)CSc1nc(N)c2c3c(sc2n1)CCCC3)C1CCS(=O)(=O)C1 (stereo not drawn) | . | -5
c1ccc(CC2CCN(c3ncnc4c3oc3ccccc34)CC2)cc1 | . | 2
CO/C(N)=N/C(=S)Nc1ccc(C(C)C)cc1 | . | -14
O=C(O)CC(=O)Nc1ccc(OC(F)(F)F)cc1 | -4.3 | .
COC(=O)COc1ncnc2sc3c(c12)CCC3 | . | -4
CCOC(=O)c1sc2nc3n(c(=O)c2c1C)N=C(c1cc2cc(Cl)ccc2oc1=O)CS3 | 0.3 | 10
COc1cc(O)c(C(=O)Cc2ccc(Cl)cc2)c(OC)c1 | -8.4 | 4
CCS(=O)(=O)c1ccc(O)c(NC(=O)CC2(CC(=O)O)CCCC2)c1 | . | 6
Cc1c(CCC(=O)O)c(=O)oc2cc3occ(C(C)(C)C)c3cc12 | -0.9 | 9
O=C(O)c1ccccc1CS(=O)c1ccccc1 (stereo not drawn) | -3.0 | .
Cc1ccc(OCC(=O)/C=C2\N(C)c3ccccc3C2(C)C)cc1 | . | -14
CCCCN(C)C(=O)Cn1ncc2c3ccccc3n(CCC)c2c1=O | 1.6 | 0
CC(C)COc1cccc(OCC(=O)Nc2cccc(Cl)c2)c1 | . | 14
CSc1ccccc1C(=O)NCC1COc2ccccc2O1 (stereo not drawn) | . | -13
CC1=CC(=C(C#N)C#N)C=C(C)N1CCc1ccc(S(N)(=O)=O)cc1 | . | 18
Cc1csc(SCc2ccccc2C(=O)OCc2nc3scc(-c4ccco4)c3c(=O)[nH]2)n1 | . | -3
CC1CCCC(NCC(O)COCc2ccc3c(c2)OCO3)C1C (stereo not drawn) | . | -7

2 of these compounds, set out differently:
MgrA-DNA mod	S aureus helic	SMILES
.	14	CC(C)COc1cccc(OCC(=O)Nc2cccc(Cl)c2)c1
.	-13	CSc1ccccc1C(=O)NCC1COc2ccccc2O1 (stereo not drawn)

The results go on.
SMILES | MgrA-DNA mod | S aureus helic
O=C(O)C1CC=CCC1C(=O)NCCc1csc(-c2ccccc2)n1 (stereo not drawn) | -0.1 | 2
CC(C)(C)NC(=O)NCCC1CCCCN1S(=O)(=O)c1ccccc1 (stereo not drawn) | . | 4
O=C(Nc1ncc(Cl)cn1)c1cccs1 | 1.1 | .
C[C@@H](C(=O)NCc1ccccc1Cl)N1C(=O)C2CC=CCC2C1=O (stereo partly drawn) | . | -15
COc1ccc(C2CCCCCN2C(=O)Nc2ccccc2)cc1 (stereo not drawn) | . | 5
CCCCC(CC)C1OC(C)CC(C)(C)O1 (stereo not drawn) | . | 32
O=C(CSc1nc2ccccc2n1Cc1ccccc1)N/N=C/c1cccnc1 | . | 6
COc1ccc(Cl)c2c1NC(c1ccncc1)C1CC=CC21 (stereo not drawn) | 0.0 | 4
CN(CCO)S(=O)(=O)c1ccc2c(c1)Cc1cc(S(=O)(=O)N(C)CCO)ccc1-2 | . | -13
COc1ccc(S(=O)(=O)N2CCC(C(=O)NC3CC3)CC2)cc1Cl | -3.0 | 13
CCC(=O)N1CCN(c2ccc(N)cc2)CC1 | 16 | -2
N#Cc1ccc(-c2csc(NC(=O)/C=C/c3cccs3)n2)cc1 | . | -12
CCC(=O)Nc1nnc(SCC(=O)Nc2ccccc2)s1 | . | -18
O=c1c(Cc2ccccc2)c(O)c2ccccc2n1Cc1ccccc1 | -3.4 | .
COc1ccc(Br)cc1Cc1nc(C)cc(Cl)n1 | -1.6 | 2
CC(C)(C)C(=O)Cn1c(C(=O)O)cc2ccccc21 | 2.3 | 0
O=C(CC1CCCCC1)NC1CCCC1 | -1.3 | 5
CC(C)NC(=O)N1CCc2c([nH]c3ccccc23)C1c1ccc(F)cc1 (stereo not drawn) | . | -13
NS(=O)(=O)c1ccc2nc(NC(=O)c3cccc(C(F)(F)F)c3)sc2c1 | . | -6
O=C(O)C1CC=CCC1C(=O)Nc1ccc(C(=O)N2CCCc3ccccc32)cc1 (stereo not drawn) | -5.2 | 13
CC(=O)Nc1c(-c2cccc(C(F)(F)F)c2)c(C(F)(F)F)nn1C | 0.6 | .
CC1(c2ccccc2)CC(C)(C)N(C(=O)c2ccco2)c2ccccc21 (stereo not drawn) | -3.0 | 15
Cc1cccc(NC(=O)Cc2ccc(NC3=NC4CS(=O)(=O)CC4S3)cc2)c1 (stereo not drawn) | . | 22
O=C(/C=C/c1ccccc1)Nc1nnc(CSCc2ccccc2F)s1 | 1.7 | 18
NS(=O)(=O)c1ccc(CCNC(=S)NC2CCCC2)cc1 | 1.1 | 4
COC(=O)c1cc(COC(=O)c2ccc3ccccc3n2)oc1C | . | -9
Cc1ccc2nc(-c3ccc(NC(=O)C(C)C)cc3)oc2c1 | 1.8 | 17
O=C(/C=C/c1ccco1)N(Cc1ccccc1F)C1CCS(=O)(=O)C1 (stereo not drawn) | . | 23
COc1cccc(N2CC(=O)N(/N=C/c3ccccn3)CC2=O)c1 | . | 31
CC(C)N(C(=O)CSc1nccc(=O)[nH]1)c1ccccc1 | . | -6
COc1ccccc1NC(=O)C1=C(C)Nc2sc(C#N)c(N)c2C1c1ccco1 (stereo not drawn) | 5.6 | 3
Cc1cc(C)c(NC(=S)NCc2ccco2)c(C)c1 | -2.0 | .
COc1ccc(S(=O)(=O)n2c(SCc3ccc(C(F)(F)F)cc3)nc3ccccc32)cc1 | 0.9 | -8
COc1cccc(C(=O)OCC(=O)NC23CC4CC(CC(C4)C2)C3)c1 | -1.1 | -23
N#Cc1cccc(NC(=O)/C=C/c2ccco2)c1 | . | -6
CC(NC(=O)/C=C/c1ccccc1Cl)c1ccccc1 (stereo not drawn) | 0.8 | 10
COC(=O)c1ccc2c(C)cc(=O)oc2c1 | -0.9 | .
CC(=O)Nc1nnc(SCc2cccc(F)c2)s1 | . | -13
CCCN(Cc1cccs1)C(=O)Nc1cc(OC)cc(OC)c1 | -0.5 | 5
O=c1c2cnn(-c3ccccc3)c2nc(-c2cccs2)n1-c1ccc(Br)cc1 | 0.2 | 13
COc1ccc2c(c1)CC/C(=C/c1ccccn1)C2=O | . | 21
N#C/C(=C\c1c(Oc2ccccc2)nc2ccccn2c1=O)C(=O)NC1CCS(=O)(=O)C1 (stereo not drawn) | . | 23
CC(C)(CO)NC(=O)C1CC(c2c(F)cccc2Cl)=NO1 (stereo not drawn) | -1.3 | -5
O=C(CSc1nnc(-c2c[nH]c3ccccc23)o1)C12CC3CC(CC(C3)C1)C2 | . | 10
Cc1cccn2cc(-c3cccc(NC(=O)c4ccccc4)c3)nc12 | -0.2 | 7
COC(=O)c1ccc(COc2ccc(NC(C)=O)cc2)o1 | -2.2 | .
CCOC(=O)c1cnc(C(F)(F)F)nc1Oc1ccccc1 | -0.5 | .
O=C(O)/C=C/C(=O)N1CC=C(c2ccccc2)CC1 | -1.1 | -6
O=C(Nc1cc(Cl)cc(Cl)c1)OC1CN(C(c2ccccc2)c2ccccc2)C1 | -4.7 | .
Cc1ccc(C(=O)Nc2nonc2C)cc1 | . | -11
O=C1NC(=S)S/C1=C/c1ccc(-c2ccc3c(c2)C(=O)NC3=O)o1 | 8.8 | 12
CC1CN(c2ccc(NS(=O)(=O)c3ccccc3)cc2C(=O)O)CC(C)O1 (stereo not drawn) | . | -3
CCOC(=O)c1csc(-c2ncc(C(F)(F)F)cc2Cl)n1 | 7.5 | .
Cc1ccc(S(=O)(=O)NC(=O)NC2CC(C)(C)NC(C)(C)C2)cc1 | . | 4
CC1(C)CC(NC(=O)c2scc3c2OCCO3)CC(C)(C)N1 | . | 7
N#Cc1ccncc1Sc1ccc(Cl)cc1 | 0.0 | .
CCOc1cc(C(=O)NC2CCCCC2C)cc(OCC)c1OCC (stereo not drawn) | . | -8
O=C(O)CCc1nn2c(nc3ccccc32)[nH]c1=O | -2.9 | -7
Clc1nccc2nc(N3CCCCCC3)ncc12 | . | -33
Cc1cc(NC(=O)CSC2=Nc3ccccc3CS2)no1 | . | -7
COc1ccc(NS(=O)(=O)c2cn(C)cn2)cc1 | -3.2 | .
Cc1ccc(-n2nnc3c(SCC(=O)Nc4cc(C)on4)ncnc32)cc1 | . | 2

Source: PubChem

An excerpt, so the mix of outcomes need not match the whole.
